A647 autofl: A647 region autofluorescence | Compound fluorescence, A647 channel (570/671 nm), Tris buffer | max dye-equivalent concentration, M | 59,000 tested, under 10 active | AID 592; active means above 1 µM dye equivalent; inconclusive means 0.1 to 1 µM; inactive means 0.1 µM or less;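 note: values scaled relative to a standard on each plate; highest value over a series up to 38 µM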
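Buffer was dispensed, compounds and Alexa 647 standards were pin-transferred, and plates sat 15 min at room temperature. Intensity at 570/671 nm was then converted to dye-equivalent concentration using the plate's A647 standard curve.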
AID923: qHTS Assay for Allosteric/Competitive Inhibitors of Caspase-1: Spectroscopic Profiling in AFC Spectral Region. AID 923, 2007. actives 1.1% (n = 75,000). compound fluorescence, AFC spectral region (405/520 nm); almost no hit is shown here. Potency, µM (series often up to 57.5 µM), for the others: top-dose fluorescence increase, actives largely listed as activators; active = well fitted activation curve with a large enough effect; inconclusive = small, poorly fitted or top-dose-only effect;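 note: potency is the fitted concentration of half-maximal effect; 0% is about no effect; scaled to a free AFC standard on each plate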
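Baseline compound fluorescence (AFC region, 405 nm ex/520 nm em) taken from the intercept of kinetic reads with 50 nM caspase-1 and 5 uM Ac-WEHD-AFC; normalized to an on-plate AFC standard curve; compounds titrated up to 57 uM.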
Resorufin autofl: compounds fluorescent in resorufin spectral region; AID 588; Compound fluorescence, resorufin region 547/598 nm, buffer; hits give high values; max dye-equivalent concentration, M; actives 0.04% (n = 59,000); active = above 10 nM dye equivalent; inconclusive = 1 to 10 nM; inactive = 1 nM or less; a few of its hits are not listed in these tables; note: highest value over a series up to 38 µM
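Read-out: intrinsic compound fluorescence at ex 547/em 598 nm after 15 min at RT in pH 8.0 Tris (100 mM). Values expressed as resorufin-equivalent concentration from per-plate standard series.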
A488 fluor: compound fluoresces in the A488 spectral region. compound autofluorescence, A488 spectral region, dye equivalency; hits give high values. max dye equivalency, M. actives 0.1% (n = 59,000). AID 591; active = above 10 nM dye equivalent; inconclusive = 1 to 10 nM; inactive = 1 nM or less; about half of its hits are not listed in these tables;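 note: highest value over a series up to 38 µM; compound alone in buffer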
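Intrinsic compound fluorescence is measured in 100 mM Tris buffer at pH 8.0 following 15 min incubation at room temperature. Intensities at 480 nm excitation/540 nm emission are calibrated to an on-plate A488 concentration series, giving dye-equivalent concentrations.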
TSHR agonist: activates the human thyroid stimulating hormone receptor | Potency, µM (doses to about 57.1 µM), inactives show at the top dose activation, most hits filed as activators | P16473 | HEK293-CNG-TSHR cells (CNG channel as cAMP sensor), membrane potential dye, cAMP | actives 0.48% (n = 73,000); active = well fitted activation curve of enough size with the parental cells flat; inconclusive = any curve in the parental cells; inactive = parental cells flat and receptor cells flat or falling; note: potency is the fitted concentration of half-maximal effect; % of control where 0% means no effect; weak receptor curves with flat parental cells got no call and are not listed
Target sequence (P16473 whole entry, looked up): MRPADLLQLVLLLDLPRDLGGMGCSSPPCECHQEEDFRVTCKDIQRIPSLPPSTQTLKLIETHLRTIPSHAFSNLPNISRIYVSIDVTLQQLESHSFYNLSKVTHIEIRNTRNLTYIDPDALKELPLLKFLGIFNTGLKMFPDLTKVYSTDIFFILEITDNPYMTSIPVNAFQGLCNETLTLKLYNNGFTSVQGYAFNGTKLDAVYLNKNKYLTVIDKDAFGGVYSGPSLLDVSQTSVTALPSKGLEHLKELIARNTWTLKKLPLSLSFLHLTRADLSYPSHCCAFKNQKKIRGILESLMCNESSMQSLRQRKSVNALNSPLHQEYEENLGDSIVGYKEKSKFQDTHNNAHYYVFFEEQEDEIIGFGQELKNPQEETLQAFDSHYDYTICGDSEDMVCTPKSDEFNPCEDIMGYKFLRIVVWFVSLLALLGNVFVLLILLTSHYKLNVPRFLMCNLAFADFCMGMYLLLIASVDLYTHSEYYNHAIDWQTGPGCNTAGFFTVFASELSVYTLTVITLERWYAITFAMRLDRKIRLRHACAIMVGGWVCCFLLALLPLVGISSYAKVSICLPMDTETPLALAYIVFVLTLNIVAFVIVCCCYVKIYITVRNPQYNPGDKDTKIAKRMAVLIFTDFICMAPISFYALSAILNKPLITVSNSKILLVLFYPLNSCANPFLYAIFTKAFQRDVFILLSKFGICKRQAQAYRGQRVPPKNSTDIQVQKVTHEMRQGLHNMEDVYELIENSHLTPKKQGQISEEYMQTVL
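cAMP rise detected as CNG-channel membrane depolarization by fluorescent dye (emission 590 nm), 30 min after compound, following 60 min dye loading containing 100 uM RO 20-1724 at room temperature. Cells: TSHR/CNG HEK 293, with parental CNG HEK 293 as control.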
The depositor's hits bear a star; i = inactive; ? = inconclusive; . = not tested or not shown; & = joins results of further samples; [ ] = dose if it differs, or a comment.

SMILES	A647 autofl	AID923	Resorufin autofl	A488 fluor	TSHR agonist
COc1cccc2cc(C(=O)NC(C)C3CCCO3)c(=O)oc12 (stereo not drawn)	4.2e-08	4.6%	i	i	3%
O=C(NCC1CCCO1)c1c(O)c2c([nH]c1=O)CCCC2 (stereo not drawn)	3.1e-08	1.2%	i	i	?
Oc1ccccc1C1=Nc2ncnn2C(c2ccccc2)C1 (stereo not drawn)	7.5e-09	2.1%	i	i	9%
O=C(CSc1ccc2nnc(-c3ccncc3)n2n1)N1CCc2ccccc21	.	3.8%	.	.	1%
CCOC(=O)N1CCN(C(=O)CSc2ccccc2)CC1	3.1e-09	0.0%	i	i	5%
CCCOc1ccc(C(C)=O)cc1CSCCC#N	1.1e-09	.	i	i	.
O=S(=O)(NCCOc1ccc(F)cc1)c1ccc2c(c1)OCCO2	1.4e-08	-0.6%	i	i	?
CCOc1ccc(NC(=O)CSc2nc3c(c(=O)n2-c2ccccc2OC)SCC3)cc1	.	-0.6%	.	.	7%
Cc1cccc(C)c1OCC(O)Cn1ccnc1C (stereo not drawn)	.	2.6%	.	.	6%
O=C(c1ccco1)N1CCC2(CC1)CCN(c1ccccn1)CC2	1.2e-09	1.3%	i	i	13%

The closing three compounds of the section before come first, to join the parts:
SMILES	A647 autofl	AID923	Resorufin autofl	A488 fluor	TSHR agonist
CCOc1ccc(NC(=O)CSc2nc3c(c(=O)n2-c2ccccc2OC)SCC3)cc1	.	-0.6%	.	.	7%
Cc1cccc(C)c1OCC(O)Cn1ccnc1C (stereo not drawn)	.	2.6%	.	.	6%
O=C(c1ccco1)N1CCC2(CC1)CCN(c1ccccn1)CC2	1.2e-09	1.3%	i	i	13%
Cc1cccc(C)c1NC(=O)Nc1cccs1	2.5e-08	7.2%	i	i	0%
COc1ccc(OC)c(N/C(=N\c2nc(C)cc(C)n2)NC(=O)c2ccco2)c1	4.4e-09	0.0%	i	i	?
NS(=O)(=O)c1ccc(S(=O)(=O)NCCc2ccccc2)cc1	.	5.3%	.	.	0%
CCCOc1ccc2oc(=O)c3c(c2c1)CCCN3C(=O)CN1CCCC(C(=O)OCC)C1 (stereo not drawn)	8.5e-09	-3.1%	i	i	?
COc1ccc(OC)c(CNC(=O)C2CCN(C(=O)N(C)C)CC2)c1	7.1e-09	-2.8%	i	i	1%
COc1ccc2[nH]c(-c3ccccc3)c(CCNC(C)=O)c2c1	.	-0.5%	.	.	6%
COC(=O)c1cc2c([nH]c3ccccc32)c(C)n1	2.6e-08	0.2%	i	i	1%
CCS(=O)(=O)N1CCC(C(=O)OCC(=O)c2ccc(Br)cc2)CC1	5.6e-09	4.4%	i	i	-1%
CCOC(=O)N1CCN(C(=O)Nc2ccc3oc(C)nc3c2)CC1	3.2e-08	-0.5%	i	i	-6%
Cc1cccc2cc(C(c3nnnn3Cc3ccccc3)N3CCN(C)CC3)c(=O)[nH]c12 (stereo not drawn)	2e-09	0.9%	i	i	?
C[N+](C)(C)CCNC(=O)c1c(O)c2c([nH]c1=O)CCCC2	5.2e-09	0.5%	i	i	0%
C=CCN1C(=O)C(O)(CC(=O)c2ccc(-n3cccc3)cc2)c2ccccc21 (stereo not drawn)	4.1e-08	0.7%	i	i	?
CC(C)Cn1cnc2c(SCc3ccccn3)nc(N)nc21	1e-09	0.3%[11.5 µM]	i	i	3%[11.4 µM]
O=C(CCCc1nc(-c2ccc(Cl)cc2)no1)N1CCOCC1	6.7e-09	-1.5%	i	i	23%
Fc1c(F)c(C(F)(F)F)c(F)c(F)c1N1CCN(c2ccc3nnc(C(F)(F)F)n3n2)CC1	.	-0.8%	.	.	9%
O=C(c1cc2n(n1)C(C(F)(F)F)CC(c1ccc(F)cc1)N2)N1CCCC1 (stereo not drawn)	8.9e-09	1.5%	i	i	-5%
COC(=O)c1cc(OC)c(OC)c(OC)c1NC(=O)c1ccc(S(=O)(=O)N(C)C)cc1	3.1e-08	1.2%	i	i	3%
CCn1c(SCC(=O)N2CCOCC2)nc2c(c1=O)SC(C)C2 (stereo not drawn)	4.1e-09	-0.9%	i	i	8%
C=CCOc1ccc(C2C(C(=O)c3ccco3)=C(O)C(=O)N2CCCN(CC)CC)cc1 (stereo not drawn)	2e-09	0.4%	i	i	1%
CCOc1ccc(NC(=O)c2ccc3c(c2)N(Cc2ccc(F)cc2)C(=O)CS3=O)cc1 (stereo not drawn)	.	0.7%	.	.	-10%

Reformatted with values under each structure: part of the list above
Second line of a record – A647 autofl, AID923, Resorufin autofl, A488 fluor, TSHR agonist
O=C(CCCc1nc(-c2ccc(Cl)cc2)no1)N1CCOCC1
→ 6.7e-09, -1.5%, i, i, 23%
Fc1c(F)c(C(F)(F)F)c(F)c(F)c1N1CCN(c2ccc3nnc(C(F)(F)F)n3n2)CC1
→ ., -0.8%, ., ., 9%
O=C(c1cc2n(n1)C(C(F)(F)F)CC(c1ccc(F)cc1)N2)N1CCCC1 (stereo not drawn)
→ 8.9e-09, 1.5%, i, i, -5%
COC(=O)c1cc(OC)c(OC)c(OC)c1NC(=O)c1ccc(S(=O)(=O)N(C)C)cc1
→ 3.1e-08, 1.2%, i, i, 3%

Next structures follow:
SMILES	A647 autofl	AID923	Resorufin autofl	A488 fluor	TSHR agonist
CCc1ccccc1N1CCN(S(=O)(=O)c2cc(OC)ccc2OC)CC1	4.3e-08	0.5%	i	i	26%
Nc1ncnc2nc(SCCN3CCCCC3)[nH]c12	3.6e-09	-1.6%	i	i	0%
CC1=C(C(=O)N(C)CCC#N)C2(CCCCC2)OC1=O	.	2.2%	.	.	0%
Cc1cccc(OCCCn2ccnc2)c1	1e-09	0.6%	i	i	-5%
O=C(NCCCN1CCOCC1)c1ccco1	.	1.8%	.	.	-2%
COc1ccccc1CNC(=O)Cn1cc2c(n1)CCCC2	.	-4.0%	.	.	0%
CC1CCc2c(sc(NC(=O)c3ccc(Cn4cc(Br)cn4)o3)c2C(N)=O)C1 (stereo not drawn)	1.9e-09	6.6%	i	i	-5%
Cc1cc(NC(=O)CSCCc2ccncc2)no1	.	-1.0%	.	.	4%
O=C(c1cccc(F)c1)N1CCN(Cc2ccco2)CC1	.	-0.4%	.	.	-1%[11.4 µM]
O=c1cc(CNC2CCCCC2)c2ccccc2[nH]1	2.8e-08	0.6%	i	i	21%
Cc1cnc(CNc2ncncc2-c2ccccc2C)cn1	1e-09	3.1%	i	i	7%
CC(=O)N1CCC2(CC1)CCN(c1cccc(-c3ccccc3)c1)CC2	1e-09	0.8%	i	i	19%
COc1cc(NC(=O)Nc2cccc(Cl)c2)c(OC)cc1NC(=O)CN1CCCCC1	6.2e-08	1.1%	i	i	-10%
CCCn1c(C)cc(C(=O)CSc2nnc3n(CCC)c(=O)c4ccccc4n23)c1C	2.3e-09	0.3%	i	i	4%
Cc1cc(C)n2nc(C(=O)OCC(=O)c3cc(C)n(C)c3C)nc2n1	3.8e-08	3.9%	i	i	?
COCCOC(=O)C1=C(C)N=C2SCCC(=O)N2C1c1ccc(OC(=O)c2ccco2)cc1 (stereo not drawn)	.	2.2%	.	.	14%
c1ccc2c(Nc3ccncc3)nc(-c3ccoc3)nc2c1	3.4e-08	-2.1%	i	i	-3%
CCCN(CCC)CCCNC(=O)CC(C(=O)N1CCc2ccccc21)n1ccnc1 (stereo not drawn)	3e-09	-1.9%	i	i	.
O=C(NCCCn1ccnc1)C1c2ccccc2Oc2ccccc21	4.7e-09	-2.3%	i	i	9%
O=C(c1cc2cc(Cl)ccc2oc1=O)N1CCOCC1	1e-09	-0.2%	i	i	?
NC(=O)C1=CN([C@@H]2O[C@@H](COP(=O)(O)OP(=O)(O)OC[C@@H]3O[C@H](n4cnc5c(N)ncnc54)[C@@H](OP(=O)(O)O)[C@@H]3O)[C@H](O)[C@@H]2O)C=CC1	4.9e-08	-1.9%	i	i	?
CCOc1ccc2nc(NC(=O)C3CCN(c4cnccn4)CC3)sc2c1	9.8e-09	0.8%	i	i	13%
Cc1cc(=O)[nH]c(/N=C(\N)Nc2cccc3ccccc23)n1	1e-09	-1.1%	i	i	6%
Cc1ccc(Cn2c(SCCN3CCCCC3)nc3c2c(=O)n(C)c(=O)n3C)cc1	1.6e-08	-0.3%	i	i	?
CCCn1c(N2CCC(Cc3ccccc3)CC2)nc2c1c(=O)[nH]c(=O)n2C	6.2e-09	0.1%	i	i	9%
CCN(CC)Cc1csc(C(N)=O)c1	3.7e-08	0.2%	i	i	-6%
CCOc1ccccc1NC(=O)CCc1ccc(C)o1	1.9e-08	-0.2%	i	i	-5%
COC(=O)Nc1ccc(S(=O)(=O)N2c3ccccc3CCC2C)cc1 (stereo not drawn)	3.4e-08	0.0%	i	i	?
CCOC(=O)c1c(C2COc3ccccc3O2)csc1NC(=O)c1ccco1 (stereo not drawn)	4e-09	4.1%	i	i	.
O=C1c2ccccc2C(=O)C1c1ccccc1	2.6e-08	-0.4%	i	i	-18%[25.6 µM]
COc1ccccc1-c1n[nH]c(=S)o1	3.2e-09	-1.5%	i	i	4%
CC(C)COc1ccc(C(=O)N(Cc2ccco2)C2CCS(=O)(=O)C2)cc1 (stereo not drawn)	1e-09	1.3%	i	i	.
Cc1cc(-c2nnc3n2N=C(c2ccc(-c4ccccc4)cc2)CS3)n[nH]1	2e-08	-0.2%	i	i	?
Cc1ccc(C2CC(c3ccco3)n3nc(N)nc3N2)cc1 (stereo not drawn)	.	1.0%	.	.	?
COc1cc(OC)cc(C(=O)OCc2cc3ccccc3[nH]c2=O)c1	3.2e-08	1.3%	i	i	?
Cc1c(-c2cccs2)[n+](=O)c2c(n1[O-])CCCC2	1e-09	.	i	i	.
CCOC(=O)c1c(-c2cccs2)csc1NC(=O)CCCC(=O)O	1e-09	.	i	i	.
COCCSc1ccccc1C(=O)Nc1nncs1	2.9e-08	0.9%	i	i	-4%
Cc1cc(C)n(-c2nc3ccccc3nc2N2CCOCC2)n1	.	-2.8%	.	.	7%
Nc1ncn(C(=O)c2ccco2)n1	5.5e-09	-1.7%	i	i	0%
COC(=O)c1c(-c2cc(OC)c(OC)c(OC)c2)c2ccnc(OCc3ncccn3)c2c(=O)n1Cc1ccnc(C)c1	6e-09	-1.6%&-3.0%	i	i	23%&4%
COc1ccc(C(=O)c2oc3ccc(OC)cc3c2N)cc1	.	3.5%	.	.	-23%
COCC(=O)N(Cc1cc2ccccc2[nH]c1=O)c1ccccc1OC	6.6e-09	0.2%	i	i	1%
COc1cc(C2c3c(oc4cc(C)c(C)cc4c3=O)C(=O)N2c2cc(C)ccn2)ccc1O (stereo not drawn)	3.6e-09	-0.3%	i	i	-12%
COc1ccc(CN(CCCN2CCOCC2)C(=O)Nc2ccccc2)cc1OC	2.9e-08	-1.1%	i	i	17%
C/C(N)=C(/C#N)C(=O)CSc1nc2cc(Cl)ccc2s1	1e-09	0.1%	i	i	-7%
COC(=O)c1ccccc1NC(=O)C(CCS(C)(=O)=O)NC(C)=O (stereo not drawn)	2.6e-08	-0.2%	i	i	-2%
Cc1cc(=O)oc(C)c1C(=O)NCC1CCCO1 (stereo not drawn)	3.4e-09	.	i	i	.
CC(=O)N1CCC[C@@]2(CCN(C(=O)Nc3ccccc3)C2)C1	3.6e-09	1.4%	i	i	9%
CC(C)(O)C#Cc1ccc(C(=O)N2CCN(C(=O)c3ccco3)CC2)cc1	.	2.6%	.	.	?

The list goes on:
SMILES	A647 autofl	AID923	Resorufin autofl	A488 fluor	TSHR agonist
Cc1cc(NC(=O)CCC2COc3ccccc3O2)no1 (stereo not drawn)	2.3e-09	1.4%	i	i	-11%
CCOC(=O)C1=C(CSc2n[nH]c(N)n2)NC(=O)NC1C (stereo not drawn)	9.6e-09	2.4%	i	i	-2%
Cc1occc1-c1nnc(SCC(=O)NCCc2ccccc2)n1C(C)c1ccccc1 (stereo not drawn)	2.7e-08	4.2%	i	i	?
O=C(NCc1ccccc1)N(Cc1nc2ccccc2c(=O)[nH]1)C1CCCC1	3.4e-09	-1.0%	i	i	-1%
CCOC(=O)c1cccnc1SCC(=O)NC(C)CC (stereo not drawn)	2.9e-08	-0.6%	i	i	3%

From PubChem BioAssay

A portion of the library; count on the stated rates, not on these rows.
